Compound activity as filed in PubChem.
Mtb H37Rv: Mycobacterium tuberculosis H37Rv growth inhibition, cell based, confirmatory dose response (AID 1949) | most inactive calls were filed without a number and no value below 0 was filed | 100,000 tested, 1.6% active | one-dose inhibition, % at 10 µg/mL; IC50 in µg/mL for titrated hits;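 active = confirmed in a dose series; inconclusive = about 50% or more but not retested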;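 also: bacteria grown 7 days with compound before Alamar blue readout; 0% = untreated bacteria and 100% = reference antibiotic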
An asterisk follows results filed as active; i = inactive; u = inconclusive. These rows are one share of the data, so the mix of outcomes need not match the whole.

SMILES | Mtb H37Rv
COc1cccc(OC)c1C(=O)Nc1ccccc1C(=O)N1CCCC1 | i
CC(=O)Nc1ccc(NC(=O)c2cccc(NC(=O)c3cccc(C)c3)c2)cc1 | i
CCOC(=O)N1CCN(C(=O)Cc2cccc3ccccc23)CC1 | i
O=C(Nc1ccccc1C(=O)NCc1ccccc1)c1cccc(Br)c1 | 0%
O=C(c1ccc(N2CCN(C3CC(=O)N(Cc4cccs4)C3=O)CC2)cc1)c1cccnc1 (stereo unspecified) | 5%
Cc1ccc(CNC(=O)COc2c(C)cccc2C)cc1 | 5%
O=C(NC1CCCCC1)N1CCCc2ccccc21 | 2%
COc1ccc2c(c1)CCC1=C2CCC2(C)C(=O)CC=C12 (stereo unspecified) | 3%
COc1cc(NC(=O)Nc2c(C)n(C)n(-c3ccccc3)c2=O)cc(OC)c1OC | i
O=C(NNC(=O)c1ccc(-n2cccc2)cc1)NC12CC3CC(CC(C3)C1)C2 | i
Cc1cc(C)n2nc(-c3ccccc3)c(-c3ccccc3)c2n1 | i
CC(=O)c1ccc(NS(=O)(=O)c2ccc(Oc3ccccc3Cl)cc2)cc1 | i

(more compounds)
SMILES | Mtb H37Rv
CN(C)S(=O)(=O)Nc1cccc(Br)c1 | i
O=C1c2cccc3cccc(c23)C(=O)N1CCN1CCN(C(=O)C23CC4CC(CC(C4)C2)C3)CC1 | i
Cc1ccc(C(=O)NCc2ccc(F)cc2)o1 | i
CCCCOc1ccc(S(=O)(=O)Nc2ccc(Cl)cc2)cc1 | 4.1µg/mL*
COc1cc2c(cc1OC)C1=C(C#N)CCC(=NC(=O)c3ccccc3F)N1CC2 | i
COc1cc(Cl)c(C)cc1NC(=O)c1ccc(C(C)(C)C)cc1 | 5%
CC(NC(=S)Nc1ccccc1C(F)(F)F)C1CC2CCC1C2 (stereo unspecified) | 1%
Cc1cccc(C)c1OCC(=O)Nc1ccccc1NC(=O)COc1c(C)cccc1C | 11%
Cc1ccc(S(=O)(=O)N(CC(=O)Nc2ccc3c(c2)OCCO3)Cc2ccccc2F)cc1 | i
CCc1cc2c(=O)c(-c3ccc(OC)cc3)coc2cc1OCC(=O)OC | 1.2µg/mL*
Cc1ccc2nc(NC(=O)c3cc(I)ccc3Cl)sc2c1 | i
O=C(O)c1cn(-c2ccccc2)nc1-c1ccccc1 | i

Next section.
SMILES | Mtb H37Rv
CS(=O)(=O)NC1c2cccc3cccc(c23)C1N1CCCCC1 (stereo unspecified) | i
COc1ccc(-c2ccc(CCC(=O)O)n2-c2cccc(C(=O)O)c2)cc1 | i
CCOC(=O)c1sc(NC(=O)COC)c(C(=O)OCC)c1C | i
O=[N+]([O-])c1ccc(S(=O)(=O)CC2CSc3nc4ccccc4n32)cc1 (stereo unspecified) | i
O=C(Nc1cccc(N2Cc3ccccc3C2)c1)c1ccccc1F | i
COc1ccc(N2CCN(C(=O)C3CCCO3)CC2)cc1 (stereo unspecified) | i
COc1ccc2c(=O)c(-c3cnn(-c4ccccc4)c3)coc2c1 | i
Cc1cc(C)nc(NC(=O)Cc2ccc(Cl)cc2)c1 | i
CCOc1ccc(NC(=O)c2ccccc2Br)c([N+](=O)[O-])c1 | 2%
O=C(Oc1ccc2c(c1)oc(=O)c1ccccc12)c1ccc(Cl)cc1Cl | i
COc1ccc(OCC#CCN2CC(C)OC(C)C2)cc1 (stereo unspecified) | i
O=C(Nc1ccon1)c1cc2c(s1)CCCCCC2 | i

The list goes on.
SMILES | Mtb H37Rv
NC(N)=Nc1nc(-c2ccccc2)c2cc(F)ccc2n1 | 7.6µg/mL*
CC(C)Sc1nc2c(c(=O)[nH]1)C(c1ccc(F)cc1)C1=C(CCCC1=O)N2 (stereo unspecified) | 1%
CCCCN(CCCC)Cc1ccc(N)cc1 | 1%
O=C(CN1C(=O)c2cc(Cl)c(Cl)cc2C1=O)N1CCCCCC1 | i
CCOC(=O)c1c(SCC(=O)Nc2nccs2)nc(C)c(C)c1C | i
CCOc1ccc(-n2nc3ccc(NC(=O)c4ccccc4OC)cc3n2)cc1 | i
CC(=O)Nc1ccc(NS(=O)(=O)c2ccc(CC(C)C)cc2)cc1 | i
O=C(Nc1cccc2c1CCCC2)C(Cl)Cl | i
CCCNC(=O)c1ccccc1NC(=O)CN(c1ccc(OC)c(OC)c1)S(C)(=O)=O | i
CNc1cc(N2CCN(C(=O)c3ccco3)CC2)ccc1[N+](=O)[O-] | i
Nc1cc(=O)[nH]c(SCc2cccc(Br)c2)n1 | 3%
Cc1ccc(NC(=O)Cn2nnc3ccccc32)cc1 | i

Some of these compounds in order of SMILES length, ascending:
SMILES | Mtb H37Rv
Cc1ccc(CNC(=O)COc2c(C)cccc2C)cc1 | 5%
Cc1cccc(C)c1OCC(=O)Nc1ccccc1NC(=O)COc1c(C)cccc1C | 11%
COc1cc2c(cc1OC)C1=C(C#N)CCC(=NC(=O)c3ccccc3F)N1CC2 | i

Next section:
SMILES | Mtb H37Rv
CC(=O)Nc1ccc(NC(=O)CN(c2ccc(Cl)c(Cl)c2)S(C)(=O)=O)cc1 | i
C#CCn1c(-c2ccco2)nc2ccccc21 | i
Cc1ccc(C(=O)c2sc3nc(C)ccc3c2N)cc1 | i
COC(=O)Cc1c(C)c2ccc(OCC(=O)c3ccccc3)cc2oc1=O | i
C=CCc1ccccc1OCCn1nnc2ccccc21 | 1%
O=C(NCCN1CCN(C(=O)c2ccc(Cl)c(Cl)c2)CC1)C(=O)Nc1ccc(F)cc1 | i
CC1=C(C(=O)Nc2ccc(C)c(C)c2)C(c2ccc(N(C)C)cc2)NC(=O)N1 (stereo unspecified) | i
Nc1nc(-c2ccc(Cl)cc2)nn1C(=O)CCc1ccccc1 | i
Cc1ccc(-c2cc(C(=O)NNC(=S)NCC3CCCO3)c3ccccc3n2)o1 (stereo unspecified) | 2%
O=C(NCc1ccc2c(c1)OCO2)c1ccc(Cl)cc1 | i
Cc1c(/C=C/c2nc3ccccc3c(=O)[nH]2)c2ccccc2n1C | 5%
COC(=O)C1=C(C)NC(=S)NC1c1ccc(OC)c(Br)c1 (stereo unspecified) | i

Continued.
SMILES | Mtb H37Rv
CCN(CC)C(=O)c1ccc(COc2ccc(Cl)c(C)c2)o1 | 2%
COc1ccc(N(C(C)C(=O)NC2CC2)S(C)(=O)=O)cc1 (stereo unspecified) | i
O=S(=O)(Nc1ccccc1O)c1cccc2cccnc12 | i
CCC1CCCCN1S(=O)(=O)c1cccs1 (stereo unspecified) | i
CC(NC(=S)N1CCOCC1)C12CC3CC(CC(C3)C1)C2 (stereo unspecified) | i
Cc1ccccc1C(=O)NC(c1ccccc1)c1ccccc1Br (stereo unspecified) | i
Cc1ccc(NC(=O)CCC2CCCCC2)nc1 | i
O=S(=O)(c1ccc2ccccc2c1)N1CCN(c2ccccc2F)CC1 | 3%
CCOC(=O)c1ccc(NC(=O)CN(c2cc(C)cc(C)c2)S(=O)(=O)c2ccc(OC)c(OC)c2)cc1 | i
COc1cc(/C=C(\C#N)c2nc(-c3cccs3)cs2)ccc1OCC(=O)Nc1ccccc1 | i
C=CCSc1nnc(-c2nnc(SCC=C)n2-c2ccccc2)n1-c1ccccc1 | i
Cc1ccc(SCCC(=O)Nc2ccc(Cl)cc2)cc1 | i

More compounds
Structure	Mtb H37Rv
COCc1nnc(NC(=O)CC(C)c2ccccc2)s1 (stereo unspecified)	i
Cc1csc(NC(=O)c2cccnc2)n1	i
CCCN(CCC)S(=O)(=O)c1ccc(NC(=O)Cc2ccc(F)cc2)cc1	i
Cc1ccc(N2C(=O)CC(Sc3nc4ccccc4s3)C2=O)cc1C (stereo unspecified)	i
CCCCc1cc(=O)oc2cc(OCC(=O)c3ccc(F)cc3)ccc12	10%
COCc1nnc(NC(=O)Cc2ccc(C)cc2)s1	i
Cc1sc(NC(=O)CCc2ccccc2)c(C(=O)O)c1C	i
CCC(=O)Nc1ccc(Cl)c(NC(=O)c2ccc(-c3ccc(Cl)cc3)o2)c1	i
Cc1cccc(NC(=O)c2cccc(Cl)c2)c1C	i
CC(C)Oc1cccc(C(=O)Nc2ccc(N3CCN(C)CC3)cc2)c1	5%
Cc1ccc(C)c(OCC(=O)NNC(=O)c2ccc(NC(=O)c3ccccc3)cc2)c1	i
Cc1nn(C(=O)c2ccco2)c(C)c1CN1C(=O)c2ccccc2C1=O	i
CC(=O)N1CCN(C(=S)c2cccc([N+](=O)[O-])c2)CC1	7%
Fc1ccc(NC(=S)NCc2cccs2)c(F)c1	i
Cc1cc(C)c(NC(=O)c2ccc(NS(=O)(=O)c3cccc4cccnc34)cc2)c(C)c1	i
COC(=O)c1ccc(NC(=O)CS(=O)(=O)c2ccc(C)cc2)cc1	i
Cc1ccc(C)c(OCCCC(=O)O)c1	i
COC(=O)COc1ccc(S(=O)(=O)Nc2ccccc2)cc1	1%
CC(C)N(C(=O)C1CC(=O)OC12CCCCC2)C(C)C (stereo unspecified)	i
Cc1cc(=O)[nH]c(SCC(=O)Nc2ccc(Oc3ccc(Cl)cc3)cc2)n1	i

4 entries from above, field by field.
CC(C)Oc1cccc(C(=O)Nc2ccc(N3CCN(C)CC3)cc2)c1
  Mtb H37Rv = 5%
Cc1ccc(C)c(OCC(=O)NNC(=O)c2ccc(NC(=O)c3ccccc3)cc2)c1
  Mtb H37Rv = i
Cc1nn(C(=O)c2ccco2)c(C)c1CN1C(=O)c2ccccc2C1=O
  Mtb H37Rv = i
CC(=O)N1CCN(C(=S)c2cccc([N+](=O)[O-])c2)CC1
  Mtb H37Rv = 7%

Remaining list, next part.
Structure	Mtb H37Rv
CC(=Nc1cc([N+](=O)[O-])ccc1O)C1=C(O)c2ccccc2C1=O	i
CCn1c(SCC(=O)N2CCCCC2)nc2sc3c(c2c1=O)CCCCC3	3%
O=C(/C=C/c1ccc(F)cc1)Nc1cccc2cccnc12	i
O=C(CNS(=O)(=O)c1cccc(Cl)c1)Nc1ccc(-c2nc3ccccc3s2)cc1	4%
COCCn1c(SCC(=O)Nc2cccc(OC)c2)nnc1-c1ccccc1	i
CC(C)N(Cc1nc(-c2ccccc2)no1)C(=O)c1ccc([N+](=O)[O-])cc1	i
Cc1cc(=O)oc2cc(OCc3ccc(F)cc3F)c(Cl)cc12	i
Nc1nncn1C(=O)c1c(Cl)cccc1Cl	i
Cc1cccc(NC(=O)c2ccccc2Br)c1	i
Cc1c(Cc2ccccc2)c(=O)oc2cc(OCC(=O)N(C)C)c(Cl)cc12	i
O=C(c1ccco1)N1CCN(c2ccc(Cl)c(Cl)c2)CC1	i
O=C(Cc1ccc(Br)cc1)Nc1ccncc1	i
O=C(CCC(=O)OCc1ccc(Br)cc1)Nc1ccccc1C(F)(F)F	2%
CCN1C=C(C(=O)OC)C(c2ccc(OC)cc2OC)C(C(=O)OC)=C1	i
Cc1cnn(C(=O)c2cc(-c3ccccc3)nc3ccccc23)c1	i
CCn1c(SCC(=O)Nc2ccc(Cl)c(Cl)c2)nnc1-c1ccc(Br)cc1	i
CS(=O)(=O)Nc1ccc(C(=O)NCc2ccc3c(c2)OCO3)cc1	i
COc1ccc(Nc2nc(C)cc(C)c2C(N)=O)cc1	2%
FC(F)(F)c1cccc(-n2c(-c3ccncc3)n[nH]c2=S)c1	i
NS(=O)(=O)c1ccc(NC(=O)Cc2cccs2)cc1	i

In a second layout: four of the compounds above
> O=C(/C=C/c1ccc(F)cc1)Nc1cccc2cccnc12
  Mtb H37Rv: i
> O=C(CNS(=O)(=O)c1cccc(Cl)c1)Nc1ccc(-c2nc3ccccc3s2)cc1
  Mtb H37Rv: 4%
> COCCn1c(SCC(=O)Nc2cccc(OC)c2)nnc1-c1ccccc1
  Mtb H37Rv: i
> CC(C)N(Cc1nc(-c2ccccc2)no1)C(=O)c1ccc([N+](=O)[O-])cc1
  Mtb H37Rv: i

More entries.
Structure	Mtb H37Rv
C=CCn1cnc2c1c(=O)n(C)c(=O)n2C	i
O=C(NCc1ccco1)c1ccc2c(c1)C(=O)N(Cc1cccnc1)C2=O	i
CCOC(=O)c1c(NC(=O)Cn2cnc3scc(-c4ccc(C)cc4)c3c2=O)sc(C)c1C	i
Cn1c(=O)c2c(nc(NCCO)n2CCc2ccccc2)n(C)c1=O	i
O=c1[nH]c2sc3c(c2c(=O)n1Cc1ccco1)CCCC3	5%
Cn1nnnc1SCCNCc1cccs1	i
O=C(Nc1ccc(Cl)c(Cl)c1)Nc1ncc2c(n1)CC(c1ccco1)CC2=O (stereo unspecified)	i
O=C(COc1ccc(Cl)cc1Br)Nc1ccc(S(=O)(=O)N2CCOCC2)cc1	i
Cc1n[nH]c(=O)nc1Nc1cccc(Cl)c1	i
O=C(CCCSc1nnc(-c2ccc(Cl)cc2)o1)c1ccc(F)cc1	u
CCN1CCN(CCOCCOc2ccccc2-c2ccccc2)CC1	10%
Cc1nn(Cc2ccccc2)c(C)c1C(=O)O	i
CC(=O)c1ccc(NC(=S)N2CCN(C(c3ccccc3)c3ccccc3)CC2)cc1	1%
CC1CCCC(C)N1C(=O)c1ccccc1NC(=O)c1ccccc1SCc1ccccc1 (stereo unspecified)	3%
Cc1nc(NCCc2ccccc2)c2sc3nc4c(cc3c2n1)COC(C)(C)C4	i
CCCCc1ccc(NC(=O)c2cc3cc(Br)cc(OC)c3oc2=O)cc1	0.69µg/mL*
COc1ccc(Nc2nc(N3CCN(C)CC3)c3ccccc3n2)cc1	2%
O=C(COc1ccccc1[N+](=O)[O-])NC1C2CC3CC(C2)CC1C3 (stereo unspecified)	6%
COc1ccccc1NC(=O)C(=O)NCCc1ccc(OC)c(OC)c1	3%
CCc1c(C)sc(NC(=O)c2ccccc2)c1C(=O)OC	8%

The list goes on:
Structure	Mtb H37Rv
Cc1cc(Cl)c(S(=O)(=O)N2CCN(c3ccc(F)cc3)CC2)cc1OCC(N)=O	1%
O=C(Cc1ccccc1[N+](=O)[O-])NCCSC1CCCCC1	1%
CC(C)(C)C(=O)Nc1ccc(C(=O)Nc2cccnc2)cc1	i
S=C(NCc1ccccc1)Nc1ccc2nsnc2c1	i
COc1cc(C2C(C#N)=C(N)N(c3ccc(C(F)(F)F)cc3)C3=C2C(=O)CCC3)ccc1O (stereo unspecified)	7%
CCCCn1c2ccccc2c2nnc(SCC(=O)Nc3ccc(S(N)(=O)=O)cc3)nc21	i
